# Compound activity as filed in PubChem BioAssay.
# BJeLR lethal: kills HRASV12-expressing BJeLR cells; 300,000 tested, 0.17% active; BJeLR (HRASV12) viability, CellTiter-Glo ATP luminescence, 48 h; reference of the scale not given here; inhibition, % (test concentration not listed);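 active = replicate mean above 50%; inconclusive = above 50% but judged a plate artefact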;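 note: 50 nL library stock added to about 25 µL; numbers are from one replicate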
# Mtb hypoxia rep: reduces hypoxia-regulated biosensor signal in M. tuberculosis; M. tuberculosis hypoxia-regulated fluorescent reporter, fluorescence; fluorescence inhibition, % (test concentration not listed); 300,000 tested, 0.1% active;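 active = 35 to 45% if threefold the growth effect, above 45% if 1.5-fold the growth effect; inactive = the rest, general growth blockers included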;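 note: wells of about 50 µL received 100 nL stock; 0% = vehicle wells and 100% = reference inhibitor wells; whole bacteria with a GFP reporter of the hypoxia response; strong numbers were not always called active; many hits fall short of the cut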
# RN4220 kill: kills Staphylococcus aureus RN4220 | S. aureus RN4220 growth, OD600, 16 h | inhibition, % (test concentration not listed) | 330,000 tested, 0.33% active | AID 1259311;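 active = z-score of -3 or lower and OD600 up to 0.18 on both plates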;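 note: plate controls were untreated cells for no effect and reference antibiotic for full effect; stock transfer was 100 nL into about 80 µL; one replicate is shown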
# ugtP null kill: kills S. aureus RN4220 lacking UgtP; S. aureus RN4220 ugtP deletion, OD600 growth, 16 h; some inactives read as strong as hits; growth inhibition, % (concentration not given with the values); 330,000 tested, 0.54% active; AID 1259309;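 active = z-score under -3 and OD600 up to 0.15 on both plates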;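 note: plate controls were untreated wells for no effect and antibiotic for full effect; wells of about 80 µL received 100 nL stock; the first replicate is given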
# Bead autofluor: counter-screen for toxin protease inhibitors: compound fluorescence; 360,000 tested, 3.1% active; fluorescence intensity (no concentration beside the values); compound autofluorescence counterscreen, microsphere flow cytometry; stronger effect = higher value;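 active = at least 3 SD above the mean of all compounds, about 16000 in these data; inconclusive = too few beads counted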;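 note: 100 nL of 1 mM stock went into each well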
# PrP 5UTR inh: inhibition of PrP 5' UTR reporter expression; cell-based PrP 5' UTR mRNA reporter, plate reader; inhibition, % (no concentration beside the values); 340,000 tested, 0.35% active; AID 488862;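 active = every replicate at 50% or more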;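 note: 0 = median of the neutral control wells; tested in H4 reporter cells; numbers are from one replicate; inactives centre near -14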
# Mtb hypoxia rep growth: second read-out of Mtb hypoxia rep, no call of its own (marks repeat the call); growth inhibition, %; measured here: M. tuberculosis growth (absorbance);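 0% = vehicle and 100% = reference antibiotic; read after six days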
# Numbers without * were called inactive; u = inconclusive; x = no result given.
SMILES	ugtP null kill	Mtb hypoxia rep growth	PrP 5UTR inh	RN4220 kill	Bead autofluor	BJeLR lethal	Mtb hypoxia rep
CC(C)OCCCNC(=O)C1CCN(S(=O)(=O)N2CCCCC2)CC1	7.7	-3.9	-9.3	3.7	7248	-5.7	1.2
CC(=O)c1ccc(NC(=O)C(C)Sc2nnnn2C)cc1 (configuration not stated)	-4.3	-1.4	-31.1	-3.6	23749*	0.5	-6.2
CC=C(C)C(=O)OC1c2c(ccc3ccc(=O)oc23)OC1C(C)(C)OC(=O)C(C)=CC (configuration not stated)	96.7*	4.0	x	-4.2	x	x	17.9
O=[N+]([O-])c1ccc(OCC2CC(c3ccccc3)=NO2)cc1 (configuration not stated)	0.4	2.5	-22.0	4.1	4252	-1.1	5.3
CC(C)c1ccc(OCC(=O)Nc2c3c(nn2C(C)(C)C)CS(=O)(=O)C3)cc1	13.5	4.9	-2.0	5.3	u	-0.4	4.2
COc1ccc(-n2c(Cc3cccn3C)nnc2SCC(=O)Nc2ccccc2)cc1	-7.6	x	-16.9	7.7	6078	-4.3	x
O=C(COC(=O)c1c2c(nc3ccccc13)/C(=C\c1cccs1)CCC2)Nc1ccccc1	13.7	-0.8	43.5	-12.5	3090	-1.6	-0.3
COc1ccc(S(=O)(=O)N2CCC(C(=O)Oc3c(OC)cccc3OC)CC2)cc1OC	-4.7	-1.6	-13.0	-0.7	4509	5.8	-4.0
O=C(c1ccc(C(F)(F)F)cc1)N1CCN(S(=O)(=O)c2ccc3c(c2)OCCCO3)CC1	5.1	1.0	-28.5	0.7	4536	-4.0	14.5
O=S(=O)(c1cccc(Cl)c1)N1CN(CC2CCCO2)c2nc3ccccc3nc21 (configuration not stated)	-2.0	2.9	-11.5	-3.4	4232	-10.4	3.5
C=CCC1c2cccc(C(=O)O)c2C(=O)N1c1ccc(Cl)cc1 (configuration not stated)	2.8	-2.7	-19.7	7.8	3512	4.4	9.8
CCN1C(=O)NC(c2ccccc2)C(C(C)=O)C1C (configuration not stated)	-9.6	3.6	x	1.0	x	x	7.8
CC(C)C(NC(=O)c1ccccc1)C(=O)OCC(=O)N1CCCC1 (configuration not stated)	2.1	-3.2	-16.2	1.8	3651	x	11.5
CCCC(C)c1nnc(NC(=O)c2cc(C(=O)OC)cc([N+](=O)[O-])c2)s1 (configuration not stated)	-15.2	16.0	-12.8	7.7	16199*	-10.5	-1.2
CN1CCN(NC(=S)NC2CCCC2)CC1	-3.8	2.9	-13.5	3.2	2117	-0.3	4.1
Cc1ccc(CCNC(=O)CN(c2ccc(C)cc2)S(=O)(=O)c2c(C)noc2C)cc1	-3.7	3.4	-11.7	1.2	6175	-2.6	-3.9
Cn1nc(C(=O)N2CCN(c3ccccc3F)CC2)c2c1-c1ccccc1S(=O)(=O)C2	18.5	2.0	-20.4	3.3	4343	2.0	9.3
CC(C)(C)OC(=O)N1CCC(c2cc(-c3cccs3)n[nH]2)CC1	2.7	2.0	-20.4	-6.9	3973	9.4	-1.5
CCCCN(C(=O)c1ccc2c(c1)S(=O)(=O)N=C1CCCCCN12)c1c(N)n(CCCC)c(=O)[nH]c1=O	1.5	3.9	-8.1	0.8	5979	-2.1	1.6
O=C(NC(=S)NC1CCCCC1)c1ccccc1[N+](=O)[O-]	11.4	11.3	-1.9	3.2	5871	-4.0	6.0

# Single entries from the list:
# Reading of O=C(c1ccc(C(F)(F)F)cc1)N1CCN(S(=O)(=O)c2ccc3c(c2)OCCCO3)CC1 under ugtP null kill: 5.1
# Reading of O=C(NC(=S)NC1CCCCC1)c1ccccc1[N+](=O)[O-] under Mtb hypoxia rep growth: 11.3
# Reading of Cc1ccc(CCNC(=O)CN(c2ccc(C)cc2)S(=O)(=O)c2c(C)noc2C)cc1 under ugtP null kill: -3.7
# Reading of CC(C)C(NC(=O)c1ccccc1)C(=O)OCC(=O)N1CCCC1 (configuration not stated) under RN4220 kill: 1.8
# Reading of CCN1C(=O)NC(c2ccccc2)C(C(C)=O)C1C (configuration not stated) under RN4220 kill: 1.0
# Reading of COc1ccc(S(=O)(=O)N2CCC(C(=O)Oc3c(OC)cccc3OC)CC2)cc1OC under Mtb hypoxia rep: -4.0
# Reading of O=[N+]([O-])c1ccc(OCC2CC(c3ccccc3)=NO2)cc1 (configuration not stated) under PrP 5UTR inh: -22.0

# The listing continues.
SMILES	ugtP null kill	Mtb hypoxia rep growth	PrP 5UTR inh	RN4220 kill	Bead autofluor	BJeLR lethal	Mtb hypoxia rep
CCOC(=O)c1oc2ccc(S(=O)(=O)n3nc(-c4ccccc4)cc3N)cc2c1C	17.8	6.6	-4.8	-4.6	5311	12.1	2.4
CCOc1cc(N2CCOCC2)c(OCC)cc1NC(=O)c1ccc2ccccc2n1	35.6	17.7	-16.1	12.8	2038	2.3	1.1
N#CC1=C(N2CCCCC2)c2cc3c(n2C1=O)CCCC3	-8.9	6.1	4.7	-0.7	2387	0.6	-2.9
C/C(C=NNC(=O)c1ccccn1)=C\c1ccco1	0.5	-15.0	x	-1.7	x	x	-3.3
Cc1ccccc1-n1c(Cn2c(=O)sc3ccccc32)nnc1SCC(N)=O	-0.7	x	-6.0	2.9	5629	1.5	x
Cc1ccc(C(=O)/C=C/Nc2ccccc2C(N)=O)cc1	x	x	-16.1	x	2629	-6.0	x
Cc1ccc(S(=O)(=O)N(C)c2ccc(C(=O)Nc3c(C)n(C)n(-c4ccccc4)c3=O)cc2)cc1	5.7	3.9	-31.5	3.9	4094	-3.7	18.3
CC1CCCCC1NCC#CCOc1ccc(Cl)cc1 (configuration not stated)	-5.8	9.4	18.1	16.9	5207	4.6	20.6
Cc1nc(Nc2cccc(C(F)(F)F)c2)nc2c1C(=O)CC(C)C2 (configuration not stated)	-8.1	x	-7.6	2.1	4257	14.2	x
O=C(Nc1ccc(F)cc1)/C(=C1/CCCCCN1)[N+](=O)[O-]	2.5	4.8	-26.0	3.2	4526	3.6	8.8
Cc1nn(-c2ccc(F)cc2)c(C)c1NS(=O)(=O)c1ccc2ccccc2c1	-11.5	8.8	-17.6	7.0	5951	-7.4	4.1
CCC(=NCC1CCCO1)c1c(O)n(Cc2ccccc2)c(=O)[nH]c1=O (configuration not stated)	12.8	5.7	-0.3	3.9	15866	3.9	0.9
CCc1nnc(NC(=O)c2c(OC)cccc2OC)s1	4.7	6.8	x	3.2	11101	3.3	6.0
CCOC(=O)c1cccc2c1-c1ccccc1/C2=N/O	x	x	-14.9	x	6668	-10.3	x
CCOc1cc(N2CCOCC2)c(OCC)cc1NC(=O)COc1cccc2cccnc12	x	x	17.5	x	2597	-13.5	x
COc1ccc(C2=NN(Cc3ccccc3)C3C(=O)NC(=O)C23)cc1 (configuration not stated)	1.1	-3.1	-10.5	2.7	4124	-0.4	9.0
COCCCNC(=O)Nc1ccc(Br)cc1Cl	8.5	3.7	-50.9	4.3	11483	9.5	4.2
O=C1C=C(c2cccc(Br)c2)CC(c2ccc(Cl)cc2)C1 (configuration not stated)	-2.3	-5.9	x	-2.4	x	x	-3.5
Nc1ccc(C(=O)Nc2ccc(Nc3ccncc3)cc2)cc1	-2.7	-2.8	-6.0	-1.4	4050	-3.8	10.4
O=S(=O)(N=C(Nc1ccc(F)cc1)C(F)(F)F)c1ccccc1	2.4	1.8	x	1.0	x	x	4.5
O=C1CCCN1CC(O)CS(=O)(=O)Cc1ccc(Cl)c(Cl)c1 (configuration not stated)	6.3	2.1	-12.8	6.6	3895	8.2	14.7
CC(=O)NC(Cc1c[nH]c2ccccc12)C(=O)NCc1ccc2c(c1)OCO2 (configuration not stated)	15.4	0.5	-11.5	6.5	8185	8.3	3.2
CC(C)C[C@H](NC(=O)N1CCn2c1nc1ccccc12)C(=O)NCc1ccc2c(c1)OCO2	-1.3	3.4	2.3	1.9	5897	-2.1	0.1
Cc1cc[n+](C(C)C(=O)c2ccc(Cl)cc2)cc1 (configuration not stated)	7.8	-1.5	-6.9	0.8	x	8.3	2.0
CC(C)NC(=O)c1cc2cc(Br)ccc2oc1=O	-0.3	x	-23.8	-2.9	3327	2.0	x
Nc1ccc(N2CCN(c3ccc(F)cc3)CC2)cc1	-6.9	-2.8	-3.4	2.9	3841	-18.9	-3.2
COC1=CC2C3=C(C(NC(C)=O)CCc4cc(OC)c(OC)c(OC)c43)C2C1=O (configuration not stated)	-4.0	-4.3	x	2.9	x	x	0.4
O=C(CSc1nnc(Cn2nnc(-c3ccccc3)n2)n1-c1ccccc1)Nc1ccc(F)cc1	4.6	3.7	-23.3	-0.7	9537	-2.1	10.2
COc1ccccc1CNS(=O)(=O)c1c(C(=O)N2CCCCCC2)c(C)n(C)c1C	6.2	9.9	-23.9	2.9	5276	-3.6	17.0
CCCC(=O)Nc1sc2c(c1C(=O)OC)C(C(=O)OC)CC2 (configuration not stated)	4.2	x	-15.8	2.6	3788	-9.1	x
Cc1c(C(=O)Nc2cc(F)cc(F)c2)cnn1-c1ccccc1	-5.0	5.0	-50.7	1.5	3103	-1.7	1.1
O=C(O)C1CCCN1c1ncnc2ccccc12 (configuration not stated)	-0.6	2.7	-19.7	2.9	5526	-1.3	2.3
CCOc1ccc2[nH]c3nc(SCC(=O)OC(C)C)nnc3c2c1	7.0	4.7	-15.6	7.0	3095	-1.1	18.5
COc1ccc(Oc2coc3cc(OC(=O)/C=C/c4ccccc4)ccc3c2=O)cc1	17.0	0.1	-9.6	10.1	10567	0.0	2.6
Cc1[nH]c(=O)[nH]c(=O)c1Cc1cccc2ccccc12	12.7	-1.0	-28.0	4.0	2243	-2.3	13.3
CC1(C)SCC(C(=O)O)N1C=O (configuration not stated)	8.0	x	-15.4	0.2	2235	-2.6	x
CC(=O)NCC(=O)NC1(C(=O)NC2CCCC2)CCCCC1	5.1	4.6	-16.9	4.6	3055	-3.5	15.0
COCC(C)NC(C(=O)Nc1ccc(C)c(Cl)c1)c1ccccc1 (configuration not stated)	1.5	-0.9	-16.0	3.6	21763*	6.5	0.4
O=C(C1CC1)N1CCCN(C(=O)C2CC2)CC1	-1.8	6.1	-3.7	-10.4	3280	3.7	23.1
Cc1ccc(N2C(N)=C(C#N)C(c3cccs3)C3=C2CC(C)(C)CC3=O)cc1 (configuration not stated)	-2.5	11.8	-18.2	-0.7	23727*	-0.2	2.3
CC(=O)Nc1nnc(S(=O)(=O)N2CCN(c3ccc([N+](=O)[O-])cc3Cl)CC2)s1	-4.6	5.2	-2.4	-1.3	5321	-5.5	-12.4
CCc1cccc(CC)c1NC(=O)COC(=O)/C(C#N)=C/c1ccc(OC)cc1	-0.5	-3.6	-36.9	-2.0	2139	-5.9	-18.4
COc1cccc(CNC(=O)C(=O)NCC(c2ccco2)N2CCOCC2)c1 (configuration not stated)	5.7	10.4	-4.1	3.0	2144	5.2	17.6
Nc1ncnc(NCc2ccc(F)cc2)c1[N+](=O)[O-]	2.0	12.5	8.0	1.8	4203	6.1	-0.7

# Structural class: the entries above containing a thiophene ring, fused or not
SMILES	ugtP null kill	Mtb hypoxia rep growth	PrP 5UTR inh	RN4220 kill	Bead autofluor	BJeLR lethal	Mtb hypoxia rep
O=C(COC(=O)c1c2c(nc3ccccc13)/C(=C\c1cccs1)CCC2)Nc1ccccc1	13.7	-0.8	43.5	-12.5	3090	-1.6	-0.3
CC(C)(C)OC(=O)N1CCC(c2cc(-c3cccs3)n[nH]2)CC1	2.7	2.0	-20.4	-6.9	3973	9.4	-1.5
CCCC(=O)Nc1sc2c(c1C(=O)OC)C(C(=O)OC)CC2 (configuration not stated)	4.2	x	-15.8	2.6	3788	-9.1	x
Cc1ccc(N2C(N)=C(C#N)C(c3cccs3)C3=C2CC(C)(C)CC3=O)cc1 (configuration not stated)	-2.5	11.8	-18.2	-0.7	23727*	-0.2	2.3
